UCH37 inh: inhibitors of human deubiquitinating enzyme UCH37. Q9Y5K5. purified proteasome/UCH37, Ub-AMC cleavage fluorescence. inhibition, % (concentration not given with the values). hit rate 0.33% among 330,000;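 active = mean of two replicates above 20%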;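 note: 0% = compound-free wells with enzyme and 100% = wells lacking proteasome; stock transfer was 100 nL into about 20 µL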
Target sequence (Q9Y5K5 whole entry, looked up): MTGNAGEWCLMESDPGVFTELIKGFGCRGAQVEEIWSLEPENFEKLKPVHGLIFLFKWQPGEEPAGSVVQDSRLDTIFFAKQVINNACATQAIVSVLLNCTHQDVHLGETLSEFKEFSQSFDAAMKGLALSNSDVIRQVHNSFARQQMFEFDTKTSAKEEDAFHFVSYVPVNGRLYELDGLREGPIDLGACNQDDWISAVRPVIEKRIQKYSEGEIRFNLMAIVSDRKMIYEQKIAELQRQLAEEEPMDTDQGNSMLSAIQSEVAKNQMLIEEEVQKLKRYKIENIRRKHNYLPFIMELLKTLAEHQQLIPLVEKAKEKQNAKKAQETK
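Material: human UCH37 enzyme supplied as purified proteasome complex. Measure: % inhibition of Ub-AMC cleavage fluorescence. Medium: pH 7.4 Tris-HCl (50 mM) with ovalbumin, ATP-MgCl2, DTT. Times: 30 min preincubation with enzyme, 25 min cleavage at room temperature. Detection: AMC fluorescence intensity at 355/460 nm.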
Bfl-1 A1 inh: inhibitors of the anti-apoptotic protein A1, read as caspase activation; MEF A1-2A-BIM cells, Caspase-Glo 3/7 luminescence, 3 h; percent of clofoctol response, vehicle zero; caspase activation, % (no concentration beside the values); hit rate 0.066% among 330,000; AID 2462;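 active = over half of replicate activation scores above 10%, or exactly half above 10 with the replicate mean above 10; inconclusive = replicate mean below 10 yet half the replicates above 10; inactive = over half of replicates below 10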;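 note: wells of about 30 µL received 50 nL stock; many hits fall short of the cut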
E coli growth: blocks Escherichia coli growth; OD600, 23 h; hits give low values; OD600 absorbance (test concentration not listed); hit rate 0.21% among 330,000; AID 1053175;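 active = OD600 absorbance below the run mean of sample wells minus 3.6 SD, in any replicate, cut at about 0.56 in these data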;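 note: stock transfer was 300 nL into about 60 µL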
Beta apoptosis: blocks beta cell apoptosis | INS-1E cytokine-induced death, ATP luminescence, 48 h; percent of positive-control rescue, neutral wells zero | protection from apoptosis, % (concentration not given with the values) | hit rate 0.8% among 300,000 | AID 435005;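 active = all replicates at 75% or more, or half of them and the mean; inconclusive = half reach 75% but not the mean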;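 note: 0% = cytokine-treated negative control wells and 100% = positive control rescue; higher means more ATP so stronger rescue from cytokine killing; wells of about 40 µL received 100 nL stock; the first replicate is given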
T cruzi repl: blocks replication of Trypanosoma cruzi | T. cruzi beta-gal in NIH3T3, luminescence, 90 h | inhibition, % (test concentration not listed) | AID 1885 | hit rate 1.4% among 300,000;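 active = mean inhibition across valid replicates above about 55%, limit read from the data; inconclusive = mean below that limit but half or more replicates reach it; inactive = mean below it, under half of replicates reach it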;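 note: signal also drops with host cell toxicity which is not excluded here; 0% = plate median of DMSO wells and 100% = zero luminescence signal; higher percent means less beta-gal luminescence so fewer parasites; stock transfer was 50 nL into about 50 µL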
Ecoli rRNA inh: inhibitors of bacterial rRNA selective over humanized ribosomes; E. coli WT GFP vs humanized-ribosome RFP mutants, fluorescence, 24 h; hits give low values; DMSO median 0, no signal -100; GFP signal change (wild-type ribosome), % (test concentration not listed); hit rate 1.6% among 350,000; AID 720706;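 active = significant combined selectivity score with lowered wild-type GFP, culture density cut under 30%, mutant RFP and density less affected; inactive = any of these conditions unmet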; note: one replicate is shown; some compounds called inactive have numbers as strong as hits
AF4-AF9 inh: blocks AF4 peptide binding to human AF9; P42568; AlphaScreen, biotin-AF4 peptide binding to FLAG-AF9; inhibition, % at 10 µM; hit rate 0.47% among 350,000; AID 651704;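 active = every replicate reaching a set inhibition limit, whatever the replicate mean, cut at about 25% in these data; inconclusive = mean inhibition reaches that limit but some replicates miss it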;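 note: 0% = plate neutral control median and 100% = total signal loss; the record names both 10 and 1 µM as test concentration; the first replicate is given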
Target sequence (P42568 whole entry, looked up): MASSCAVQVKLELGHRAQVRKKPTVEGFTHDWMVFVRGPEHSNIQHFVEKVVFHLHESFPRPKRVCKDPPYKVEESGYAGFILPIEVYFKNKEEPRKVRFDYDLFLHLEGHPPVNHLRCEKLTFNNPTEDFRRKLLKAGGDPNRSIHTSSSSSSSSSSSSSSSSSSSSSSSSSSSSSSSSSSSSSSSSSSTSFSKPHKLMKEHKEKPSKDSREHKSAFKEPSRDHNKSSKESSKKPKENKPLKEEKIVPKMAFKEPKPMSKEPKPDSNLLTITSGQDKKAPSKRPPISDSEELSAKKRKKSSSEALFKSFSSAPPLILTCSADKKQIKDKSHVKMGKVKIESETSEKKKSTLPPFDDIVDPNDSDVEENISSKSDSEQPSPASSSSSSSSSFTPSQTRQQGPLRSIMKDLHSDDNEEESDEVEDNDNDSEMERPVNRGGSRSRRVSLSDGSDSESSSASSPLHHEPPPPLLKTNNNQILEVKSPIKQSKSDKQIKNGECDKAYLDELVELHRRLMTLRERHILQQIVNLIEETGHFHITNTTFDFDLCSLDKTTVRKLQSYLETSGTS
FGF22 binding: binders of recombinant human FGF22 by thermal shift | Q9HCT0 | SYPRO orange fluorescence; percent of sucrose octasulfate shift, DMSO zero | calls only at 9.99 µM | hit rate 1.5% among 340,000;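 active = melting point raised past a set limit in the mean and every replicate; inconclusive = no clear call; three in four hits are not shown here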
Target sequence (Q9HCT0 whole entry, looked up): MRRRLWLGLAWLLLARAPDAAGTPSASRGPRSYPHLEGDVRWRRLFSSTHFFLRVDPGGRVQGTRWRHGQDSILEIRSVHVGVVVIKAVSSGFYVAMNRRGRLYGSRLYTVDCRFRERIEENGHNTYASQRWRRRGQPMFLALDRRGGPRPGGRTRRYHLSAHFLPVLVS
Ecoli rRNA inh OD600: second read-out of Ecoli rRNA inh, no call of its own (marks repeat the call); OD600 change, %; measured here: OD600 growth;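 optical density of the mix in the first replicate; 0 = DMSO median and -100 = no signal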
Ecoli rRNA inh RFP: also measured in Ecoli rRNA inh; calls as there; RFP signal change, %; measured here: RFP humanized mutant strains;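 first replicate; 0 = DMSO median and -100 = no signal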
* hit, by the source's call; i = inactive; ? = inconclusive; / = not tested or not shown.

SMILES | UCH37 inh | Bfl-1 A1 inh | E coli growth | Beta apoptosis | T cruzi repl | Ecoli rRNA inh | Ecoli rRNA inh OD600 | Ecoli rRNA inh RFP | AF4-AF9 inh | FGF22 binding
COC(=O)Cc1cc(=O)n(-c2nc3ccccc3[nH]2)[nH]1 | 4.3 | 0.0 | 0.57 | -2 | -20 | -15 | 5 | 7.1 | -5.2 | i
COc1ccc(COC(=O)CCN=C2NS(=O)(=O)c3ccccc32)cc1F | 2.6 | 1.1 | 0.71 | 1 | 2 | 6 | 4 | 0.9 | 0.0 | i
COC(=O)COc1ccc(-c2nn(C)c(=O)c3ccccc23)cc1 | 0.5 | 0.3 | 0.71 | -4 | -7 | / | / | / | / | /
CC(C)C(=O)Nc1ccc(S(=O)(=O)Nc2ccccn2)cc1 | 3.2 | 1.2 | 0.71 | / | -8 | 14 | 10 | 0.8 | -3.1 | i
NC1(C#Cc2ccc3oc(=O)c(-n4cc(C5(O)CCCCC5)nn4)cc3c2)CCCCC1 | -2.9 | -1.2 | 0.67 | -2 | / | 13 | 9 | 4.7 | -0.7 | i
CC(C)Cn1c(N)c(C(=O)COC(=O)c2ccc(O)cc2O)c(=O)n(C)c1=O | -2.7 | 1.3 | 0.7 | 7 | 24 | 1 | 1 | 0.3 | 1.9 | i
O=C1Nc2ccc(S(=O)(=O)NCC3CCCO3)c3cccc1c23 (centres undefined) | i | 0.2 | 0.66 | 3 | / | 10 | 4 | 4.1 | -0.9 | i
O=C(C1CCN(S(=O)(=O)c2ccccc2)CC1)N1CCN(Cc2ccccc2)CC1 | 1.0 | -0.1 | 0.74 | -4 | 0 | 19 | 14 | 1.5 | 0.3 | i
Cc1cc(C(=O)c2ccccc2)cc(C)c1O | 1.0 | / | 0.71 | / | / | 8 | 12 | 5.2 | -5.7 | i
Cc1ccsc1C(C(=O)NC1CCCCC1)N(C(=O)Cc1cccs1)C1CC1 (centres undefined) | -0.2 | -0.2 | 0.67 | 0 | 7 | / | / | / | / | /
COc1ccc(-c2csc(NC(=O)c3c(OC)cccc3OC)n2)cc1 | 2.7 | 0.8 | 0.66 | -5 | 1 | 4 | 0 | 5.8 | -7.3 | i
Cc1ccc(-c2nn(-c3ccccc3)cc2C=O)o1 | 1.0 | 0.4 | 0.69 | 5 | -5 | 13 | 11 | 21 | -2.9 | i
Fc1ccc(C(c2nnnn2Cc2cccs2)N2CCN(C3CCCCC3)CC2)cc1 (centres undefined) | 5.6 | 2.1 | 0.71 | 3 | -12 | / | / | / | / | /
COc1ccc(-c2nc(N)n[nH]2)cc1 | 1.9 | -0.1 | 0.69 | -3 | -21 | / | / | / | / | /
Cc1nc2ccc(NC(=O)C3CCCCC3)cc2s1 | 0.2 | -0.7 | 0.65 | -3 | / | -1 | -1 | -0.6 | 0.7 | i
Cc1ccc(COc2ccsc2C(=O)NN)cc1 | 2.3 | -0.3 | 0.72 | 7 | 31 | -10 | -22 | -2.4 | 0.3 | i
Cc1c(-c2nnc(-c3ccc(C(F)(F)F)cc3)o2)cnn1-c1ccccc1 | -2.1 | -0.7 | 0.76 | 1 | -3 | / | / | / | / | /
COc1ccc(CNC(=O)c2c(-c3cc(Cl)c(OC)c(Cl)c3)noc2C)cc1 | 4.2 | 1.3 | 0.77 | / | 23 | -3 | -1 | -5.9 | -0.6 | i
Oc1c(N=Nc2ccccc2)sc2ccccc12 | 3.5 | -8.4 | 0.7 | 0 | -16 | 12 | 35 | 26 | 3.8 | i
Cc1ccc(OCC(=O)NS(=O)(=O)c2ccc(Cl)cc2)cc1 | 3.9 | 1.4 | 0.66 | / | -1 | -2 | -2 | -0.4 | -3.0 | i

6 of the compounds above, as tab-separated lines.
SMILES	UCH37 inh	Bfl-1 A1 inh	E coli growth	Beta apoptosis	T cruzi repl	Ecoli rRNA inh	Ecoli rRNA inh OD600	Ecoli rRNA inh RFP	AF4-AF9 inh	FGF22 binding
CC(C)Cn1c(N)c(C(=O)COC(=O)c2ccc(O)cc2O)c(=O)n(C)c1=O	-2.7	1.3	0.7	7	24	1	1	0.3	1.9	i
O=C1Nc2ccc(S(=O)(=O)NCC3CCCO3)c3cccc1c23 (centres undefined)	i	0.2	0.66	3	/	10	4	4.1	-0.9	i
O=C(C1CCN(S(=O)(=O)c2ccccc2)CC1)N1CCN(Cc2ccccc2)CC1	1.0	-0.1	0.74	-4	0	19	14	1.5	0.3	i
Cc1cc(C(=O)c2ccccc2)cc(C)c1O	1.0	/	0.71	/	/	8	12	5.2	-5.7	i
Cc1ccsc1C(C(=O)NC1CCCCC1)N(C(=O)Cc1cccs1)C1CC1 (centres undefined)	-0.2	-0.2	0.67	0	7	/	/	/	/	/
COc1ccc(-c2csc(NC(=O)c3c(OC)cccc3OC)n2)cc1	2.7	0.8	0.66	-5	1	4	0	5.8	-7.3	i

More compounds
SMILES | UCH37 inh | Bfl-1 A1 inh | E coli growth | Beta apoptosis | T cruzi repl | Ecoli rRNA inh | Ecoli rRNA inh OD600 | Ecoli rRNA inh RFP | AF4-AF9 inh | FGF22 binding
CSCCC(NC(=O)c1cccc([N+](=O)[O-])c1)C(=O)OCC(=O)N1CCCC1=O (centres undefined) | -0.4 | -1.3 | 0.61 | -6 | -10 | 4 | 3 | 0.5 | 5.8 | i
COc1ccc(C2CC(c3ccc(C)cc3)Nc3nc(N)nn32)cc1 (centres undefined) | -0.3 | 0.0 | 0.72 | -3 | 61* | / | / | / | / | /
Cc1cn(-c2ccc(Br)cc2)[nH]c1=O | 2.7 | -1.3 | 0.65 | -5 | -4 | 15 | 8 | -0.6 | -2.9 | i
N#CCCN(C(=O)c1ccco1)c1ccccc1 | 4.9 | 0.2 | 0.7 | 2 | 2 | / | / | / | / | /
CSc1ccccc1NC(=O)COC(=O)c1ccccc1O | 5.9 | -1.4 | 0.69 | -7 | -17 | 9 | 14 | 1.7 | -0.4 | i
CCCCCCCCOC(=O)CCn1[nH]c(=O)c2ccccc2c1=O | -0.4 | 0.2 | 0.65 | -5 | -8 | / | / | / | / | /
COc1ccc(N(CC(=O)N/N=C(\C)c2cccs2)S(=O)(=O)c2ccccc2)cc1Cl | / | -0.4 | / | -5 | 14 | 18 | 17 | 4.2 | -3.7 | i
CCOc1cc(C2C(C(=O)N3CCCCC3)=C(C)NC3=C2C(=O)CCC3)cc(Br)c1O (centres undefined) | -25 | -0.5 | 0.64 | 1 | 6 | / | / | / | / | /
CCOc1ccccc1NC(=O)CN(C)S(=O)(=O)c1cccc2nsnc12 | 2.1 | 1.5 | 0.71 | 2 | / | / | / | / | / | /
COc1ccccc1C(=O)Nc1cccc(NC(=O)c2ccccc2OC)n1 | -4.1 | -0.3 | 0.63 | / | 3 | 2 | 8 | 1.0 | -0.9 | i
CCn1nnnc1SCC(=O)c1ccc2c(c1)OCCO2 | 2.1 | -2.8 | 0.75 | -1 | ? | / | / | / | / | /
CC1CC(=O)Nc2ccccc2N1C(=O)CN1CCN(c2ccccc2)CC1 (centres undefined) | 3.5 | 0.7 | 0.66 | 0 | 1 | -9 | -1 | -1.2 | -0.4 | i
COc1ccc(/C(N)=N/OC(=O)C2CCCCC2)cc1OC | 0.3 | -1.3 | 0.68 | 4 | -1 | -7 | -24 | -1.7 | -4.7 | i
CC(C)(CNC(=O)CCNC(=O)c1ccc(Br)cc1)N1CCOCC1 | 4.8 | -1.4 | 0.68 | -2 | -8 | 2 | 5 | -2.4 | ? | i
O=C(N/N=C\c1ccc2c(c1)OCO2)c1ccco1 | / | -6.0 | / | 10 | -6 | 9 | 8 | -3.4 | 1.0 | i
COc1ccc(NC(=O)Cn2c(=O)n(-c3ccc(CC(=O)NCc4ccco4)cc3)c(=O)c3ccccc32)cc1 | -0.2 | 0.2 | 0.71 | 15 | -34 | 8 | 20 | -5.7 | -11 | /
COC(=O)[C@H](CCSC)NC(=O)NCCc1ccc(F)cc1 | 1.0 | 1.0 | 0.74 | -4 | -12 | / | / | / | / | /
O=C(COc1ccc(/C=N/NC(=O)C(=O)N2CCCCC2)cc1)Nc1ccccc1Cl | / | -0.6 | / | / | -8 | 45 | 27 | 4.1 | 2.4 | i
CCCN1CCC(=O)NC1=S | -1.1 | / | 0.68 | / | / | 8 | 12 | -1.0 | 1.2 | i
O=C(NCc1ccccc1)c1ccc(CN2CCOCC2)cc1 | 1.0 | 0.3 | 0.7 | -9 | 8 | / | / | / | / | /
O=C(NNc1ccccc1)C(=O)NNS(=O)(=O)c1ccc([N+](=O)[O-])cc1 | / | 1.3 | / | -1 | 61* | 7 | 10 | -1.9 | -0.6 | i
CCc1ccc(NC(=O)c2cc(C(C)C)on2)cc1 | 0.9 | -3.0 | 0.7 | -8 | 13 | / | / | / | / | /
COc1cc(C(=O)COC(=O)c2cnc(C)cn2)ccc1OC(F)F | 3.1 | 0.4 | 0.71 | / | -7 | 0 | 9 | -1.4 | -0.1 | i
COC(=O)c1ccc2c(=O)n(Cc3ccco3)c(SCC(=O)Nc3ccccc3Cl)nc2c1 | -14 | -0.7 | 0.67 | / | -5 | / | / | / | / | /
Cc1cc(Br)ccc1SCC(=O)OCC(=O)NCc1ccc2c(c1)OCO2 | 5.3 | -0.6 | 0.69 | -1 | -30 | -21 | -14 | -3.9 | -4.3 | i
CC[C@@]1(C(=O)OC)N[C@H](CN(C)C(=O)Nc2ccc(C(F)(F)F)cc2)[C@@H]2C(=O)N(C)C(=O)[C@@H]21 | 4.8 | / | 0.72 | / | / | 7 | 4 | 0.8 | -5.0 | i
CNC(=O)c1c(NC(=O)CS(=O)(=O)c2ccc(F)cc2)sc(C)c1C | 1.0 | -0.5 | 0.69 | 4 | -7 | 2 | 3 | 3.1 | -0.4 | i
CCn1cc2nc(SCC(=O)Nc3ccc(OC)cc3OC)n(Cc3ccc(OC)cc3)c(=O)c2n1 | 1.2 | 1.8 | 0.7 | 19 | -2 | 7 | 1 | 0.9 | 2.1 | i
Cc1ccc(NC(=O)CN(C)S(=O)(=O)c2ccc(Br)s2)cc1F | 2.4 | 0.0 | / | -5 | -3 | / | / | / | / | /
CCOC(=O)Nc1ccc2c(COC(=O)CNS(=O)(=O)c3ccc(NC(C)=O)cc3)cc(=O)oc2c1 | -217 | -0.7 | 0.72 | -2 | -8 | / | / | / | -6.9 | i
CCN1C(=O)C2CCCCN2c2ccc(C(=O)NCCOC)cc21 (centres undefined) | -3.2 | 0.1 | 0.67 | -10 | -9 | 2 | 4 | -2.4 | -2.5 | i
COC(=O)/C=C/c1ccc2c(c1)S(=O)(=O)N(Cc1ccc(OC)cc1)[C@H]2CC(=O)OC | 4.0 | 1.0 | / | -6 | 7 | -25 | -31 | -5.7 | -8.4 | i

Some of the compounds tested; rates above refer to the full screens.
